# Env fusion inh = HIV envelope-mediated fusion inhibition; HeLa-JRFL Env/CEM21 cell fusion, luciferase; inhibition, % at 12.3 µM; 360,000 tested, 1.1% active; AID 651610;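 active means mean replicate inhibition score of at least 50 and every replicate individually at or above 50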;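 further: 0% = plate neutral controls and 100% = maraviroc near 300 nM; one replicate is shown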
# UUG fidelity = yeast start codon fidelity modulation; 350,000 tested, 0.13% active; S. cerevisiae UUG-firefly luciferase reporter, luminescence/redox ratio; activity score, % at 18.7 µM; AID 602363;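 active means replicate mean at a twofold rise or more, about +100% in these data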;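 further: firefly luciferase made from a UUG start codon reports start codon fidelity; reporter light over untreated wells divided by growth signal over untreated wells; some hits fall short of that in this replicate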
# * = called active by the depositor; [ ] = remark or other dose.
SMILES,Env fusion inh,UUG fidelity
C[C@@H]1CN([C@H](C)CO)C(=O)c2cc(NC(=O)CCC(F)(F)F)ccc2O[C@@H](C)CCCCO[C@H]1CN(C)S(=O)(=O)c1cn(C)cn1,5[16.7 µM],9
CC(C)NC(=O)N(C)C[C@H]1Oc2cc(C#Cc3cccc(F)c3)ccc2S(=O)(=O)N([C@H](C)CO)C[C@H]1C,16[16.7 µM],15
COc1cccc(-c2ccc3c(c2)O[C@H](CN(C)Cc2cncnc2)[C@@H](C)CN([C@@H](C)CO)S3(=O)=O)c1,7[16.7 µM],-7
C[C@H](CO)N1C[C@H](C)[C@@H](CN(C)Cc2ccc(C(=O)Nc3ccccc3N)cc2)Oc2ccc(N(C)C)cc2CC1=O,-2[16.7 µM],-5
C[C@H](CO)N1C[C@H](C)[C@H](CN(C)S(=O)(=O)c2cn(C)cn2)Oc2ccc(NC(=O)Nc3ccccc3)cc2CC1=O,9[16.7 µM],1
C[C@@H]1CN([C@H](C)CO)C(=O)Cc2cc(NC(=O)CCC(F)(F)F)ccc2O[C@H]1CN(C)Cc1ccc(Oc2ccccc2)cc1,4[16.7 µM],-2
C[C@H]1CCCCO[C@@H](CN(C)CC2CCCCC2)[C@@H](C)CN([C@@H](C)CO)C(=O)c2cc(NS(C)(=O)=O)ccc2O1,2[16.7 µM],45
C[C@@H]1CN([C@H](C)CO)C(=O)Cc2cc(NC(=O)CCCCCC(=O)Nc3ccccc3N)ccc2O[C@H]1CN(C)C(=O)NC1CCCCC1,-1[16.7 µM],-2
C[C@@H]1CN([C@@H](C)CO)C(=O)CCCn2cc(nn2)CO[C@H]1CN(C)C(=O)Nc1cccc2ccccc12,-9,2
C[C@H](O)C#Cc1cnc2c(c1)C(=O)N([C@H](C)CO)C[C@H](C)[C@@H](CN(C)C(=O)CN(C)C)O2,1[16.7 µM],-8
COc1ccccc1-c1cn(CC[C@@H]2CC[C@H](NC(=O)C3CC3)[C@@H](CO)O2)nn1,-4[16.7 µM],27
C[C@H]1CCCCO[C@H](CN(C)S(=O)(=O)c2ccc(F)cc2)[C@@H](C)CN([C@@H](C)CO)C(=O)c2cc(NC(=O)C3CCCCC3)ccc2O1,-9[16.7 µM],5
C[C@@H]1CN([C@@H](C)CO)C(=O)c2cc(NC(=O)c3ccncc3)ccc2O[C@@H](C)CCCCO[C@H]1CN(C)S(=O)(=O)c1cn(C)cn1,5[16.7 µM],-6
N#C[C@H]1[C@@H](c2ccc(C3=CCCC3)cc2)[C@@H](CO)N1S(=O)(=O)c1ccccc1,-3[16.7 µM],0
O=C(NCC[C@@H]1CC[C@@H](NC(=O)C2CC2)[C@H](CO)O1)c1cc(Cl)cc(Cl)c1,1[16.7 µM],-3
COc1ccc(NC(=O)Nc2ccc3c(c2)C(=O)N([C@@H](C)CO)C[C@H](C)[C@H](CN(C)C(=O)NC(C)C)O3)cc1,0[16.7 µM],4
C[C@@H]1CCCCO[C@H](CN(C)Cc2ccncc2)[C@@H](C)CN([C@H](C)CO)C(=O)c2cc(NC(=O)NC3CCCCC3)ccc2O1,-11[16.7 µM],-10
C[C@@H]1CN([C@@H](C)CO)S(=O)(=O)c2ccc(C3=CCCCC3)cc2O[C@@H]1CN(C)Cc1ccccn1,6[16.7 µM],-24
CCC(=O)N(C)C[C@H]1Oc2ncc(-c3ccc(C#N)cc3)cc2C(=O)N([C@@H](C)CO)C[C@@H]1C,-1[16.7 µM],-2
C[C@@H]1CN([C@H](C)CO)C(=O)c2cccc(NC(=O)c3ccc(-c4nccs4)cc3)c2O[C@@H]1CN(C)Cc1ccc(C(=O)O)cc1,-19[16.7 µM],1
C[C@@H]1CN([C@@H](C)CO)C(=O)Cc2cc(NS(=O)(=O)c3cccs3)ccc2O[C@H]1CN(C)S(=O)(=O)c1cn(C)cn1,-10[16.7 µM],-2
CCNC(=O)C[C@H]1CC[C@H]2[C@@H](COc3ccc(NC(=O)c4ccccc4)cc3C(=O)N2C)O1,0[16.7 µM],-6
Cc1ccc(-c2cnc3c(c2)C(=O)N([C@H](C)CO)C[C@H](C)[C@H](CN(C)C(=O)c2ccc(F)cc2)O3)cc1,-5[16.7 µM],-1
C/C=C/c1cnc2c(c1)C(=O)N([C@@H](C)CO)C[C@@H](C)[C@@H](CN(C)C(=O)Nc1ccccc1F)O2,-12[16.7 µM],61
Cc1noc(C)c1NC(=O)N(C)C[C@@H]1OCCCC[C@H](C)Oc2ccc(NS(=O)(=O)c3cn(C)cn3)cc2C(=O)N([C@@H](C)CO)C[C@H]1C,-14[16.7 µM],-11
COc1ccc(S(=O)(=O)Nc2cccc3c2O[C@@H](CN(C)S(=O)(=O)c2ccccc2)[C@@H](C)CN([C@@H](C)CO)C3=O)cc1,-12[16.7 µM],0
CO[C@H]1CN(C)C(=O)c2cc(NC(=O)Nc3ccccc3)ccc2OC[C@H](C)NC[C@H]1C,4[16.7 µM],-5
COc1ccc(S(=O)(=O)N(C)C[C@@H]2Oc3ccc(N(C)C)cc3C(=O)N([C@@H](C)CO)C[C@@H]2C)cc1,47[16.7 µM],4
CC(=O)Nc1ccc2c(c1)C(=O)N(C)[C@H]1CC[C@@H](CC(=O)NCc3ccccc3)O[C@H]1CO2,1[16.7 µM],4
COC(=O)C[C@@H]1CC[C@H]2[C@@H](COC[C@H](O)CN2S(=O)(=O)c2ccccc2OC)O1,13[16.7 µM],-1
C[C@H](CO)N1C[C@H](C)[C@@H](CN(C)C)Oc2cc(-c3ccc(C(=O)N(C)C)cc3)ccc2S1(=O)=O,-2[16.7 µM],10
COCC#Cc1cnc2c(c1)C(=O)N([C@H](C)CO)C[C@H](C)[C@H](CN(C)Cc1ccc(-c3ccccc3)cc1)O2,14[16.7 µM],17
C/C=C/c1ccc2c(c1)O[C@@H](CN(C)Cc1ccc(C(=O)O)cc1)[C@H](C)CN([C@H](C)CO)S2(=O)=O,15[16.7 µM],1
CCCNC(=O)N(C)C[C@@H]1Oc2ncc(C3=CCCC3)cc2C(=O)N([C@H](C)CO)C[C@H]1C,6[16.7 µM],-5
CCNC(=O)C[C@@H]1CC[C@H]2[C@@H](COc3ccc(NC(=O)Cc4ccccc4)cc3C(=O)N2C)O1,2[16.7 µM],-18
C[C@H](CO)N1C[C@H](C)[C@@H](CN(C)Cc2ccccc2)Oc2cc(C#Cc3ccccn3)ccc2S1(=O)=O,-26[16.7 µM],-3
CCCNC(=O)C[C@@H]1CC[C@H]2[C@@H](COc3ccc(NC(=O)Nc4cccc(C)c4)cc3C(=O)N2C)O1,28[16.7 µM],6
C[C@H]1CN([C@@H](C)CO)C(=O)c2cc(C3=CCCCC3)cnc2O[C@H]1CN(C)C(=O)c1ccc(F)cc1,13[16.7 µM],10
O=C(C[C@@H]1CC[C@H](NS(=O)(=O)c2ccc(F)cc2)[C@@H](CO)O1)NC1CCC1,-7[16.7 µM],-5
C[C@@H]1CN([C@H](C)CO)C(=O)c2cc(NS(=O)(=O)c3ccc(F)cc3)ccc2O[C@@H](C)CCCCO[C@@H]1CN(C)S(=O)(=O)c1ccccc1,-58[16.7 µM],-12
COc1ccc(S(=O)(=O)Nc2ccc3c(c2)C(=O)N([C@@H](C)CO)C[C@H](C)[C@@H](CN(C)Cc2ccc(Oc4ccccc4)cc2)O3)cc1,63*[16.7 µM],17
O=C(N[C@@H]1CC[C@@H](CCn2cc(-c3ccc(F)cc3)nn2)O[C@H]1CO)c1cnccn1,16[16.7 µM],-9
C[C@@H]1CN([C@H](C)CO)C(=O)c2cc(C#Cc3ccncc3)cnc2O[C@H]1CN(C)Cc1ccncc1,3[16.7 µM],-1
CCCc1cn(CC[C@H]2CC[C@@H](NC(=O)Cc3cccnc3)[C@@H](CO)O2)nn1,4[16.7 µM],-11
CCNC(=O)Nc1ccc2c(c1)C(=O)N(C)[C@H]1CC[C@@H](CC(=O)NCc3ccccc3F)O[C@@H]1CO2,-2[16.7 µM],1
C[C@H](CO)N1C[C@H](C)[C@@H](CN(C)S(=O)(=O)c2ccccc2)Oc2ncc(-c3cccc(C(=O)N(C)C)c3)cc2C1=O,-3[16.7 µM],14
C[C@H](CO)N1C[C@H](C)[C@H](CN(C)C(=O)Nc2ccccc2)Oc2c(NC(=O)Nc3cccc4ccccc34)cccc2C1=O,0[16.7 µM],-6
CC(=O)N(C)C[C@H]1Oc2ncc(C#CC(C)(C)O)cc2C(=O)N([C@@H](C)CO)C[C@@H]1C,-5[16.7 µM],-8
COc1ccc(S(=O)(=O)N(C)C[C@H]2OCCCC[C@@H](C)Oc3ccc(NC(=O)Nc4ccc5c(c4)OCO5)cc3C(=O)N([C@@H](C)CO)C[C@@H]2C)cc1,5[16.7 µM],-9
O=C(C[C@H]1C=C[C@@H](NC(=O)CC2CC2)[C@@H](CO)O1)NCc1ccc(Cl)cc1,-50[16.7 µM],-8
COCc1cn(CC[C@@H]2CC[C@@H](NC(=O)Nc3c(C)noc3C)[C@H](CO)O2)nn1,0[16.7 µM],-9
CCCC(=O)Nc1ccc2c(c1)C(=O)N(C)[C@@H]1CC[C@@H](CC(=O)NC3CCCC3)O[C@H]1CO2,-4[16.7 µM],6
C[C@@H]1CN([C@H](C)CO)C(=O)c2cc(-c3cccc(F)c3)cnc2O[C@@H]1CN(C)S(C)(=O)=O,1[16.7 µM],-1
C[C@@H]1CCCCO[C@H](CN(C)S(C)(=O)=O)[C@@H](C)CN([C@@H](C)CO)C(=O)c2cc(NC(=O)Nc3ccccc3)ccc2O1,-2[16.7 µM],24
O=C(N[C@H]1CC[C@@H](CCn2cc(C3(O)CCCC3)nn2)O[C@H]1CO)C1CCC1,4[16.7 µM],-2
C[C@@H]1CN([C@H](C)CO)C(=O)c2cc(C#CCc3ccccc3)cnc2O[C@@H]1CN(C)CC1CCOCC1,7[16.7 µM],10
Cc1ccc(S(=O)(=O)Nc2ccc3c(c2)C(=O)N([C@H](C)CO)C[C@H](C)[C@H](CN(C)S(=O)(=O)c2ccc(C)cc2)O3)cc1,16[16.7 µM],-3
COc1ccc(NC(=O)N[C@H]2CC[C@@H](CCn3cc(-c4ccccn4)nn3)O[C@@H]2CO)cc1,-7[16.7 µM],-25
C[C@@H]1CN([C@@H](C)CO)C(=O)c2cccc(N(C)C)c2O[C@H]1CN(C)S(C)(=O)=O,4[16.7 µM],-8
COc1ccc(NC(=O)N(C)C[C@@H]2OCCCC[C@@H](C)Oc3ccc(NS(=O)(=O)c4ccc(F)cc4)cc3C(=O)N([C@@H](C)CO)C[C@H]2C)cc1,-17[16.7 µM],3

# Four entries from above, ordered by formula weight, falling.
SMILES,Env fusion inh,UUG fidelity
C[C@@H]1CCCCO[C@H](CN(C)S(C)(=O)=O)[C@@H](C)CN([C@@H](C)CO)C(=O)c2cc(NC(=O)Nc3ccccc3)ccc2O1,-2[16.7 µM],24
Cc1ccc(-c2cnc3c(c2)C(=O)N([C@H](C)CO)C[C@H](C)[C@H](CN(C)C(=O)c2ccc(F)cc2)O3)cc1,-5[16.7 µM],-1
C[C@H]1CN([C@@H](C)CO)C(=O)c2cc(C3=CCCCC3)cnc2O[C@H]1CN(C)C(=O)c1ccc(F)cc1,13[16.7 µM],10
O=C(C[C@H]1C=C[C@@H](NC(=O)CC2CC2)[C@@H](CO)O1)NCc1ccc(Cl)cc1,-50[16.7 µM],-8

# Whole records, looked up by structure. Values in the order: Env fusion inh, UUG fidelity
# Shown for `C[C@@H]1CN([C@H](C)CO)C(=O)c2cc(NS(=O)(=O)c3ccc(F)cc3)ccc2O[C@@H](C)CCCCO[C@@H]1CN(C)S(=O)(=O)c1ccccc1` : -58[16.7 µM], -12
# Shown for `COc1ccc(NC(=O)N(C)C[C@@H]2OCCCC[C@@H](C)Oc3ccc(NS(=O)(=O)c4ccc(F)cc4)cc3C(=O)N([C@@H](C)CO)C[C@H]2C)cc1` : -17[16.7 µM], 3

# Next part
SMILES,Env fusion inh,UUG fidelity
C[C@H](CO)N1C[C@H](C)[C@@H](CN(C)C(=O)c2cccc(F)c2)Oc2cc(-c3ccncc3)ccc2S1(=O)=O,0[16.7 µM],-3
C[C@@H]1CN([C@@H](C)CO)C(=O)c2cc(-c3ccccc3)cnc2O[C@@H]1CN(C)Cc1ccc(C(=O)O)cc1,-20[16.7 µM],12
C[C@H]1CN([C@@H](C)CO)S(=O)(=O)c2ccc(C3=CCCC3)cc2O[C@@H]1CN(C)Cc1cncnc1,-11[16.7 µM],-3
C[C@H](CO)N1C[C@H](C)[C@H](CN(C)Cc2ccccc2)Oc2ccc(NS(=O)(=O)c3ccc(F)cc3)cc2CC1=O,-10[16.7 µM],-2
C[C@@H]1CN([C@H](C)CO)C(=O)Cc2cc(NC(=O)Nc3ccc4c(c3)OCO4)ccc2O[C@H]1CN(C)Cc1ccc(C(F)(F)F)cc1,9[16.7 µM],4
C[C@@H]1CCCCO[C@H](CN(C)S(=O)(=O)c2cccs2)[C@@H](C)CN([C@@H](C)CO)C(=O)c2cc(NC(=O)Nc3ccc4c(c3)OCO4)ccc2O1,-34[16.7 µM],-15
C[C@H]1CN([C@@H](C)CO)C(=O)c2cc(N(C)C)ccc2O[C@@H]1CN(C)S(=O)(=O)c1cn(C)cn1,-6[16.7 µM],-3
C[C@H]1CN([C@@H](C)CO)S(=O)(=O)c2ccc(-c3cccc(F)c3)cc2O[C@@H]1CN(C)C(=O)C1CC1,2[16.7 µM],11
Cc1noc(C)c1NC(=O)Nc1ccc2c(c1)C(=O)N([C@H](C)CO)C[C@H](C)[C@H](CN(C)S(=O)(=O)c1ccc(F)cc1)OCCCC[C@H](C)O2,-23[16.7 µM],12
CCC(=O)N(C)C[C@H]1Oc2ncc(-c3ccc(C)cc3)cc2C(=O)N([C@@H](C)CO)C[C@H]1C,-17[16.7 µM],5
C[C@H]1CN([C@@H](C)CO)S(=O)(=O)c2ccc(C#Cc3ccccc3F)cc2O[C@H]1CN(C)C,-10[16.7 µM],7

# The list is partial. The share of hits here may be higher or lower than overall.
